Compound activity as filed in PubChem.
T cruzi inh – inhibitors of intracellular T. cruzi growth, primary screen, luminescence, NIH3T3 host cells; T. cruzi beta-gal in NIH3T3, 90 h; inhibition, % (concentration not given with the values); actives 1.4% (n = 300,000); AID 1885, 2009;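 active = mean inhibition across valid replicates above about 55%, limit read from the data; inconclusive = mean below that limit but half or more replicates reach it; inactive = mean below it, under half of replicates reach it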;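 also: signal also drops with host cell toxicity which is not excluded here; 0% = plate median of DMSO wells and 100% = zero luminescence signal; higher percent means less beta-gal luminescence so fewer parasites; stock transfer was 50 nL into about 50 µL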
A1 inh – caspase 3/7 activation in MEF A1-2A-BIM cells, primary screen, A1 inhibitor project, cell-based, luminescence, HTS. AID 2462, 2010. actives 0.066% (n = 330,000). caspase activation, % (test concentration not listed). Caspase-Glo 3/7 luminescence, 3 h; percent of clofoctol response, vehicle zero;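 active = over half of replicate activation scores above 10%, or exactly half above 10 with the replicate mean above 10; inconclusive = replicate mean below 10 yet half the replicates above 10; inactive = over half of replicates below 10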;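 also: wells of about 30 µL received 50 nL stock; many hits fall short of the cut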
Vif TR-FRET – inhibitors of Vif binding to APOBEC3G peptide, primary screen, biochemical, TR-FRET, GST-Vif 1-94, biotin-A3G peptide, dose response retest (AID 1117319) | Virion infectivity factor (Human immunodeficiency virus type 1 group M subtype B (isolate … | TR-FRET GST-Vif / biotin-A3G peptide binding; higher % means a stronger effect; test concentration not given here; strong numbers were not always called active | one-dose inhibition, %; IC50 in µM for titrated hits | actives 0.57% (n = 260,000);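 active = above the screen mean plus three standard deviations and confirmed in dose response; inconclusive = results disagree or hit not tested in dose response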;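 also: Vif residues 1-94 fused to GST binding biotinylated APOBEC3G peptide 110-148; 0% = full assay without inhibitor and 100% = GST in place of GST-Vif; retest series ran down from 100 µM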
Calb FLC – C. albicans growth inhibition with fluconazole, primary screen, CaCi-2 strain, Alamar Blue fluorescence. C. albicans CaCi-2 (fluconazole-resistant clinical isolate) + fluconazole, 48 h. AID 1979, 2009. actives 0.57% (n = 300,000). growth inhibition, % (test concentration not listed);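 active = most replicates above 75%; inconclusive = exactly half above 75%; inactive = most below 75%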;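 also: all wells also contain fluconazole at 8 µg/ml as a sub-toxic cotreatment; 0% = median of DMSO wells and 100% = median of geldanamycin control wells; wells of about 8 µL received 7.5 nL stock; the first replicate is given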
RanGTP-Impb inh – inhibitors of RanGTP-importin-beta interaction, primary screen, biochemical, FRET, CFP-Ran, YFP-importin-beta, homogeneous; inhibition, % (no concentration beside the values); AID 2216, 2009; cell-free CFP-Ran/YFP-importin-beta FRET ratio; actives 1.1% (n = 300,000); Ran GTPase (GTP-bound) - importin-beta complex;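 active = most replicates above 15%; inconclusive = exactly half above 15%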;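 also: 0% = DMSO wells and 100% = Ran loaded with GDP instead of GTP; wells of about 40 µL received 100 nL stock; the first replicate is given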
Beta cell apopt – inhibitors of cytokine-induced beta cell apoptosis, primary screen, luminescence. INS-1E cytokine-induced death, ATP luminescence, 48 h; percent of positive-control rescue, neutral wells zero. protection from apoptosis, % (concentration not given with the values). actives 0.8% (n = 300,000). AID 435005, 2010;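 active = all replicates at 75% or more, or half of them and the mean; inconclusive = half reach 75% but not the mean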;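 also: 0% = cytokine-treated negative control wells and 100% = positive control rescue; higher means more ATP so stronger rescue from cytokine killing; wells of about 40 µL received 100 nL stock; the first replicate is given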
AF4-AF9 inh – inhibitors of AF4 peptide binding to AF9, primary screen, biochemical, AlphaScreen, biotin-AF4 peptide, FLAG-AF9, single point; actives 0.47% (n = 350,000); inhibition, % at 10 µM;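 active = every replicate reaching a set inhibition limit, whatever the replicate mean, cut at about 25% in these data; inconclusive = mean inhibition reaches that limit but some replicates miss it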;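 also: 0% = plate neutral control median and 100% = total signal loss; the record names both 10 and 1 µM as test concentration; the first replicate is given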
Target sequence (P42568 whole entry, looked up): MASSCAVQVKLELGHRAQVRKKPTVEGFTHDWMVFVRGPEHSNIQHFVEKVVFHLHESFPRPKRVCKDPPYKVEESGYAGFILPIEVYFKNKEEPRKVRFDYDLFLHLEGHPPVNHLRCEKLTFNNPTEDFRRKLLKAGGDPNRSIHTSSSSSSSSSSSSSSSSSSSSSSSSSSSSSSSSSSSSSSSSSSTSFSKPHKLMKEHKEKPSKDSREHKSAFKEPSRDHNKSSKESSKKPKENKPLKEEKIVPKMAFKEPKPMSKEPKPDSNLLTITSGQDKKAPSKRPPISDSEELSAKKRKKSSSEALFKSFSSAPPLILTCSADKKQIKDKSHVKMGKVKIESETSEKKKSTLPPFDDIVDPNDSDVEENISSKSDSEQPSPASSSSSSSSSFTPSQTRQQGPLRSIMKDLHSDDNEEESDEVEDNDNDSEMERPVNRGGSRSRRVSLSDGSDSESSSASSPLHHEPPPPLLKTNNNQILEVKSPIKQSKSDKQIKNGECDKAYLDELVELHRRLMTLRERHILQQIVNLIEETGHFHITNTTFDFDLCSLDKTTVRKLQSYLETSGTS
rRNA inh HTS – reduced GFP signal of wild-type E. coli, primary screen, bacterial rRNA inhibitor project, GFP/RFP fluorescence, OD600, single point | GFP signal change (wild-type ribosome), % (no concentration beside the values) | E. coli WT GFP vs humanized-ribosome RFP mutants, 24 h; hits give low values; DMSO median 0, no signal -100 | actives 1.6% (n = 350,000);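 active = significant combined selectivity score with lowered wild-type GFP, culture density cut under 30%, mutant RFP and density less affected; inactive = any of these conditions unmet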; also: one replicate is shown; some compounds called inactive have numbers as strong as hits
rRNA inh HTS OD600 – also measured in rRNA inh HTS; calls as there; OD600 change, %; measured here: OD600 growth;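 optical density of the mix in the first replicate; 0 = DMSO median and -100 = no signal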
rRNA inh HTS RFP – also measured in rRNA inh HTS; calls as there; RFP signal change, %; measured here: RFP humanized mutant strains;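 first replicate; 0 = DMSO median and -100 = no signal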
Active calls of the source: *; ? = inconclusive; nt = no result given. Some of the compounds tested; rates above refer to the full screens.

SMILES	T cruzi inh	A1 inh	Vif TR-FRET	Calb FLC	RanGTP-Impb inh	Beta cell apopt	AF4-AF9 inh	rRNA inh HTS	rRNA inh HTS OD600	rRNA inh HTS RFP
O=C(CSc1cn(Cc2ccccc2)c2ccccc12)Nc1nccs1	13	0.2	-2%	-4	-0.3	-5	-12	-2	-4	-0.9
COc1cc(SC#N)ccc1N=Cc1c(C)[nH]n(-c2ccc(Cl)cc2)c1=O	21	-0.9	-1%	-5	0.4	70	nt	nt	nt	nt
Cc1nn(Cc2cccc(C(=O)N3CCCC(C)C3)c2)c(C)c1[N+](=O)[O-] (stereo not given)	7	-0.1	-2%	10	-1.0	-5	nt	nt	nt	nt
CCCc1nnc(NC(=O)CCC(=O)N2CCN(Cc3ccc(F)cc3)CC2)s1	15	-0.4	nt	2	-0.6	nt	-1.5	-5	3	-3.5
COc1ccc(/C=C(\NC(=O)c2ccccc2)C(=O)NCc2ccco2)cc1	-2	0.4	nt	-4	3.3	-1	1.3	7	14	-0.2
O=C(Nc1nc(-c2cc3ccccc3oc2=O)cs1)c1ccc(Br)o1	8	0.2	2%	6	0.8	nt	nt	nt	nt	nt
C=CCNC(=S)N/N=C/c1ccc(OCc2ccccc2Cl)cc1	65*	0.4	-3%	11	-2.3	6	nt	nt	nt	nt
O=C(NC1CCCC1)C(c1cccnc1)N(Cc1ccccc1F)C(=O)c1csnn1 (stereo not given)	1	0.4	-5%	-7	7.4	-4	3.9	nt	nt	nt
CSc1ccc(S(=O)(=O)N(CC(=O)NN=C2CCN(C)CC2)c2ccc(C)cc2)cc1	-16	0.0	-8%	7	-1.1	-4	-3.2	-3	2	0.7
Cc1cccc(NC(=O)c2cnn(C)c2)c1C	-8	0.8	nt	-5	5.5	-8	-4.2	24	9	-3.4
CCOc1cc2[nH]c(=S)n(Cc3ccc(C(=O)NCCCN(CC)CC)cc3)c(=O)c2cc1OCC	13	0.6	0%	-1	-2.0	nt	9.2	15	7	7.3
COCCN(C(=O)/C=C/c1cccc([N+](=O)[O-])c1)c1c(N)n(Cc2ccccc2)c(=O)[nH]c1=O	-17	1.1	-5%	-21	2.0	-8	3.9	7	-2	-5.6
CCc1ccc(OCC(=O)NNC(=O)c2cc(S(=O)(=O)N3CCOCC3)ccc2N2CCCC2)cc1	nt	0.2	nt	nt	nt	1	2.1	-3	-6	3.7
COc1ccc(CSC2=NCCN2)cc1Cl	?	0.0	-2%	-7	-0.6	-7	nt	nt	nt	nt
O=C(c1cccnc1)N1N=C2CCCCCC2C1(O)C(F)(F)F (stereo not given)	-10	0.2	0%	-6	0.8	-11	-2.2	10	12	-3.0
Cc1cc(C(=O)N2CCCc3ccccc32)ccc1[N+](=O)[O-]	-8	0.4	nt	-8	2.4	-11	7.0	6	6	2.2
NC(=S)Cc1nc(-c2ccc(Cl)cc2)cs1	20	0.4	14%	25	18*	21	-1.6	-1	-6	27
O=C(N/N=C/c1cccnc1)c1ccc(NC(=O)c2ccc(F)cc2)cc1	-12	0.0	nt	3	1.9	-4	2.2	-2	1	0.9
Cc1nn(-c2ccccc2)c(Cl)c1/C=N/NC(=O)c1ccco1	-9	-1.8	-3%	23	0.4	0	nt	nt	nt	nt
Cc1cccc(-c2onc3ccc(C(=O)/C=C/N(C)C)cc23)c1	-6	1.0	nt	41	?	-7	-4.1	0	7	1.1
COc1ccc(Cl)cc1NC(=O)CNc1ccccc1F	15	0.7	?	-9	0.8	4	nt	nt	nt	nt
Cc1nnc(SCC(=O)N/N=C/c2cn(-c3ccccc3)nc2-c2ccccc2)n1-c1ccccc1	20	-0.5	-2%	0	-1.2	4	nt	nt	nt	nt
CSc1nc2ncc3c(n2n1)CC1c2ccccc2CCN1C3=O (stereo not given)	10	0.2	-7%	-6	?	12	nt	nt	nt	nt
COc1ccccc1CNCc1cc(=O)oc2c(C)c(C)ccc12	5	-0.1	nt	0	2.5	-1	0.1	-7	-3	1.8
CCOC(=O)c1sc(NC(=O)C2CC=CCC2C(=O)O)nc1C (stereo not given)	2	-0.2	18%	11	4.4	-4	nt	nt	nt	nt
CCC(Cc1ccccc1)NS(=O)(=O)c1ccc2c(c1)NC(=O)C(C)S2 (stereo not given)	15	1.1	2%	14	-2.9	4	-3.1	-26	-40	-3.3
O=C(NCCO)C(=O)Nc1cc2c3c(c1)CCN3C(=O)CC2	-20	3.2	nt	32	-3.7	-9	0.2	11	11	-1.9
O=C(NC1CC1)C1CCN(C2CCN(C(=O)/C=C/c3ccc(F)cc3)CC2)CC1	5	0.2	-13%	15	3.1	-5	-1.7	34	19	4.4
CCn1c(C)c(C2=CCN(S(=O)(=O)c3ccccc3)CC2)c2ccccc21	27	-0.1	0%	-5	-1.8	-4	nt	nt	nt	nt
COc1ccc(NC(=O)CO/N=C2/CCCc3nonc32)c(OC)c1	3	0.3	18%	1	3.7	3	2.4	2	-5	1.0
Cc1ccccc1Nc1nc(N)nc(CSc2nnnn2-c2ccccc2)n1	3	0.9	1%	-3	2.1	nt	nt	nt	nt	nt
COc1cc(/C=C2\SC(=Nc3ccc(N4CCOCC4)cc3)N(C)C2=O)ccc1OC(C)C(=O)O (stereo not given)	-10	-3.3	9%	6	-5.3	-1	nt	nt	nt	nt
Cc1ccc2nc(N3CCN(Cc4ccc(F)cc4)C3=O)c(C)cc2c1	9	-0.3	0%	0	2.9	4	nt	nt	nt	nt
C=CCCC(=O)Nc1nc(C)c(-c2csc(Nc3ccccc3OC)n2)s1	-4	-0.3	19%	-6	?	6	-25	-1	4	0.5
CCCc1ccc(S(=O)(=O)N(C)S(=O)(=O)c2ccc(F)cc2)cc1	20	0.3	nt	-11	6.1	7	-3.3	-1	1	-2.2
O=C(N/N=C/c1cc2ccccc2[nH]1)c1ccccc1Cl	-3	0.5	-2%	3	1.7	-7	2.6	-4	1	-1.7
NC(=S)N/N=C/c1coc2ccc(Br)cc2c1=O	-6	0.8	13%	-6	-0.4	-11	-0.5	nt	nt	nt
C/C(=N\NC(=O)c1ccncc1)c1cccc(NC(=O)c2ccc(Cl)s2)c1	nt	-0.5	nt	-11	nt	1	-2.2	-22	-20	-3.4
CCCCc1nc2sc3c(SCC(=O)NCc4ccco4)ncnc3c2c2c1CCC2	1	0.7	-6%	5	-4.4	12	nt	nt	nt	nt
O=C(NCC1CCCO1)c1cc2c([nH]c3ccccc32)c(-c2cccc(Br)c2)n1 (stereo not given)	55*	0.3	nt	-5	1.3	58	3.7	nt	nt	nt
CC(C)(C)OC(=O)NC(=NCCCc1cn(CC(=O)N2CCN(C(=O)OC(C)(C)C)CC2)nn1)NC(=O)OC(C)(C)C	9	0.4	1%	-5	-0.8	-7	5.5	1	6	-5.1
Cc1ccc(C(=O)OCC(=O)NC(C)C)cc1S(=O)(=O)N1CCOCC1	-9	0.2	nt	-4	2.0	-11	-1.6	17	12	1.0
COc1ccc(OC)c(CCNC(=O)CSc2ccsc2[N+](=O)[O-])c1	9	-1.1	-5%	-19	-1.0	0	nt	nt	nt	nt
COc1ccc(-c2cc(C(=O)Nc3ccc4c(c3)OCO4)no2)cc1OC	8	0.0	nt	-21	3.9	5	2.3	1	10	-2.0
CCOC(=O)C1C2C=CC3(CN(c4ccc(Cl)c(F)c4)C(=O)C13)O2 (stereo not given)	-16	-0.7	8%	5	?	-4	-2.0	4	6	-2.5
COCCC1CCCCN1C(=O)c1cc(COc2cccc(C(C)=O)c2)on1 (stereo not given)	-5	0.2	-6%	0	-2.6	15	-2.3	-2	-5	-3.4
CCC(CC)C(=O)NCCc1cc2c(OC)ccc(OC)c2[nH]c1=O	-7	0.1	-2%	4	-0.7	2	nt	nt	nt	nt
Nc1ccc(C23CC4CC(CC(CO)(C4)C2)C3)cc1	0	0.5	0%	-38	-0.9	9	nt	nt	nt	nt
COCCCn1c(=O)/c(=C\c2ccc(OC(F)F)c(OC)c2)s/c1=C(/C#N)C(=O)NCCOC	-9	0.0	-8%	7	?	-2	0.0	6	22	2.5
CCN1CSC(=S)N(Cc2ccccc2)C1	21	-0.8	nt	6	-5.4	-8	3.2	6	5	-7.5
COc1ccc(COC(=O)CCS(=O)(=O)c2ccc(C)cc2)cc1	0	0.1	-7%	1	3.2	2	-27	-2	0	5.1
CCOc1ccc(NC(=O)CSc2nc3ccccc3c(=O)n2CCCC(=O)NCCCN2CCCC2=O)cc1	19	-0.6	4%	-6	-3.9	-17	-1.0	12	5	2.0
CN1C(=O)c2ccc(C(=O)Nc3ccccc3O)cc2C1=O	-21	0.1	nt	12	-4.9	-3	-0.8	17	10	-0.4
O=[N+]([O-])c1ccccc1NCCNc1ncc(C(F)(F)F)cc1Cl	21	0.6	-3%	-14	2.2	3	nt	nt	nt	nt
C(=N\N1CCN(C2c3ccccc3-c3ccccc32)CC1)/c1ccncc1	24	0.2	9%	3	0.1	-7	nt	nt	nt	nt
C/C(=N\NC(=O)c1ccc(-c2ccccc2)cc1)C1C(=O)c2ccccc2C1=O	?	-0.2	nt	0	-0.1	30	0.8	-15	-12	7.1
C/C(=N\NC(=S)NCCc1ccccc1)c1ccc(Cl)cc1Cl	nt	-0.2	nt	-10	-0.2	4	1.3	-5	-16	3.7
COc1ccc(NC(=O)NCc2ccccn2)cc1OC	-17	1.1	23%	10	3.5	7	nt	nt	nt	nt
CCCC(=O)Nc1cccc(-c2nc3cc(C)c(C)cc3o2)c1	nt	-4.4	27%	10	?	12	nt	nt	nt	nt
COc1ccccc1N1CCN(C(=O)c2ccc(S(=O)(=O)N3CCCCC3)cc2)CC1	-4	-0.2	7%	-10	1.6	-3	nt	nt	nt	nt

(more compounds)
SMILES	T cruzi inh	A1 inh	Vif TR-FRET	Calb FLC	RanGTP-Impb inh	Beta cell apopt	AF4-AF9 inh	rRNA inh HTS	rRNA inh HTS OD600	rRNA inh HTS RFP
Cc1ccc(SCCn2nc(C(=O)O)c3ccccc3c2=O)cc1	-4	-0.3	-7%	16	7.9	2	-1.0	9	12	0.0
CCC1(c2ccc(F)cc2)NC(=O)N(CC(=O)N2CCc3ccccc3C2)C1=O (stereo not given)	4	0.8	4%	1	0.2	-1	-3.1	1	-6	2.9
CC(C(=O)Nc1sc2c(c1C(=O)NCc1ccco1)CCCC2)N1C(=O)c2ccccc2C1=O (stereo not given)	4	0.5	1%	5	2.1	-5	nt	nt	nt	nt
O=C(CNC(=O)c1ccc(Br)o1)NCc1ccccc1	-6	-1.3	nt	1	2.7	-7	-0.5	20	10	0.4
